# NPYLR7 agonist: mosquito NPYLR7 agonism. activation, % at 10 µM. hit rate 0.15% among 270,000. HEK293T NPYLR7/Galpha15, GCaMP6s calcium fluorescence; in the data active = activation above about 40%;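 also: 0% = vehicle and 100% = reference agonist at the receptor; some compounds past the cut are filed as inactive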
# NPYLR7 agonist max-min: recorded beside NPYLR7 agonist, whose call it bears; activation, %; measured here: Max-Min RFU normalised activation; some inactives read as strong as hits;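 span of the calcium signal over five minutes; 0% = vehicle and 100% = native peptide agonist; compound fluorescence can raise it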
# An asterisk follows results filed as active; & = joins results of further samples. This is a subset; rates above refer to the full screens.
1) Fc1ccc(C=NNC2=Nc3cccc4cccc2c34)cc1
2) CC(C)C1=NOC(C(=O)N2CCC(CCC(=O)N3CCN(c4ccccc4)CC3)CC2)C1 (configuration not stated)
3) COCCOCCCCNc1cc(Cl)ccc1C#N
4) O=C(c1ccc(Cl)cc1Cl)N(Cc1ccco1)Cc1nc2cc(Cl)ccc2o1
5) Cc1ccc(CN(CCc2c[nH]c3ccccc23)C(=O)CN(C(=O)COCc2ccccc2)C(C)C)cc1
6) Cc1cccc(CN(C(=O)c2ccc(F)cc2)C2CCC(NC(=O)C3CCN(C(=O)Cc4ccccc4)CC3)CC2)c1 (configuration not stated)
Assay by compound | 1 | 2 | 3 | 4 | 5 | 6
NPYLR7 agonist | -7 | 6 | 2 | 1 | 10 | 14
NPYLR7 agonist max-min | -13 | 5 | -1 | -8 | 10 | 23

7) Cc1csc(CC(=O)NNC(=O)CN(C)C(C)c2ccc(F)cc2)n1 (configuration not stated)
8) CCOc1ccc(S(=O)(=O)n2nc(C)c(S(=O)(=O)N3CCCC(C)C3)c2C)cc1 (configuration not stated)
9) c1ccc(-c2noc3nc(NC4CC4)ccc23)nc1
10) Cc1nc(NC(=O)N[C@@H]2CCCC[C@H]2c2ccccc2)nn1C
11) O=C1C2C3C=CC(C3)C2C(=O)N1Cc1ccc2c(c1)OCO2 (configuration not stated)
12) Cc1cc(C(=O)N(C)C(C)c2nccs2)cc(S(N)(=O)=O)c1C (configuration not stated)
Assay by compound | 7 | 8 | 9 | 10 | 11 | 12
NPYLR7 agonist | 0 | 3 | 1 | 22 | -9 | 1
NPYLR7 agonist max-min | 20 | 0 | -1 | 7 | -16 | -2

# Arranged by length of the SMILES (high to low): three of the compounds above.
7) Cc1csc(CC(=O)NNC(=O)CN(C)C(C)c2ccc(F)cc2)n1 (configuration not stated)
1) Fc1ccc(C=NNC2=Nc3cccc4cccc2c34)cc1
3) COCCOCCCCNc1cc(Cl)ccc1C#N
Assay by compound | 7 | 1 | 3
NPYLR7 agonist | 0 | -7 | 2
NPYLR7 agonist max-min | 20 | -13 | -1

# Next results follow.
13) CCc1nc(NC(=O)C2CCCN(C(=O)C3CC3)C2)sc1C (configuration not stated)
14) Cc1ccccc1Cn1cc(C(=O)N(Cc2ccccc2)Cc2scnc2C)nn1
15) Cc1ccc(C2c3cccn3CCCN2Cc2ccc(F)c(Cl)c2)cc1C (configuration not stated)
16) Cc1ccc(OC2(C(=O)N3C[C@H](OC(C)C)[C@@H](O)C3)CCNCC2)cc1
17) COC(=O)CCCN=Cc1c(O)[nH]c(=O)[nH]c1=O
18) CCC(Oc1ccccc1)C(=O)N1CCC2(CCc3ccccc32)CC1 (configuration not stated)
Assay by compound | 13 | 14 | 15 | 16 | 17 | 18
NPYLR7 agonist | 4 | 19 | 4 | -1 | 0 | 8
NPYLR7 agonist max-min | 3 | 10 | 14 | 0 | -5 | 6

# Screen by screen, as entered above.
# Compounds 9 to 15 in NPYLR7 agonist max-min, in turn: -1, 7, -16, -2, 3, 10, 14
# Compounds 9 to 15 in NPYLR7 agonist, in turn: 1, 22, -9, 1, 4, 19, 4

# (listing goes on)
19) CCOC(=O)CN(C(=O)c1cc2ccccc2s1)[C@H]1[C@H](OC)[C@@H]2O[C@H]1c1ccccc12
20) O=C(NCCn1ccnc1)NCC1CCCO1 (configuration not stated)
21) c1ccc(C2CC(=NNc3nncc4ccccc34)c3ccccc3O2)cc1 (configuration not stated)
22) Cc1n[nH]c(C)c1CCNC(=O)C1CCC(=O)N(CCc2cccc(F)c2)C1 (configuration not stated)
23) CCC(=O)Nc1nnc(SCC(=O)c2ccc(F)cc2)s1
24) COc1ncc(C(=O)N(C)C(C)c2ccc(F)cc2)cn1 (configuration not stated)
Assay by compound | 19 | 20 | 21 | 22 | 23 | 24
NPYLR7 agonist | -4 | 15 | 9 | 21 | 15 | -3
NPYLR7 agonist max-min | 6 | 10 | 9 | 10 | 24 | -3

25) CNS(=O)(=O)c1ccc(CN2C[C@@H]3[C@@H]4CC[C@@H](C4)[C@@H]3C2)cc1
26) Cc1ccc(C(=O)C=Cc2ccc(N(C)C)cc2)o1
27) CNc1c(N=Cc2ccncc2)c(=O)n(C)c(=O)n1C
28) COc1ccc(NC(=O)N2CCCN(c3nc(Cc4ccc(Cl)cc4)ns3)CC2)cc1
29) O=C(c1cc(-c2ccccc2)ns1)N1CCOC(c2ccccc2F)C1 (configuration not stated)
30) CCCOC(=NCCCN1CCOCC1)NC(=O)c1cccc(OC)c1
Assay by compound | 25 | 26 | 27 | 28 | 29 | 30
NPYLR7 agonist | 6 | 75* | 0 | -5 | 11 | 14
NPYLR7 agonist max-min | 3 | 60* | -3 | -3 | 9 | 20

31) CC(NC(=O)c1cc(-c2ccc(F)cc2)n[nH]1)C1CCCO1 (configuration not stated)
32) COc1ccc(NC(=O)C2CCN(c3c(C#N)cnc4ccc(C)cc34)CC2)c(OC)c1
33) CCc1c(C(=O)COc2ccc(C(=O)NC3CC3)cc2)[nH]c(C)c1C(C)=O
34) COc1ccccc1-c1noc2nc(NCC3CCOCC3)ccc12
35) COc1cc(NC(C)Cc2cc(C)[nH]n2)ncn1 (configuration not stated)
36) CCn1c(=O)c2c(nc3n2CC(C)CN3c2ccc(OC)cc2)n(C)c1=O (configuration not stated)
Assay by compound | 31 | 32 | 33 | 34 | 35 | 36
NPYLR7 agonist | 2 | -1 | -4 | 1 | 4 | 0
NPYLR7 agonist max-min | -1 | -2 | -4 | -2 | 1 | -2

37) COc1cc(-c2cnc3ccccc3c2)cc2c1OCCN(Cc1cnc[nH]1)C2
38) CCc1nc2n(n1)C(=O)C(C(c1ccc(C)cc1)N1CCC(C(N)=O)CC1)S2 (configuration not stated)
39) Oc1cccc2ccc(C=Cc3ccccc3Br)nc12
40) NC(=O)CSCC(=O)NC(c1ccc(Cl)cc1)C1CCCC1 (configuration not stated)
41) Cc1ccc(F)cc1NC(=O)Nc1cnn(CCN2CCOCC2)c1
42) COc1ccc(CCNC(=O)N2CCc3nc(Nc4cc(C)cc(C)c4)ncc3C2)cc1OC
Assay by compound | 37 | 38 | 39 | 40 | 41 | 42
NPYLR7 agonist | 5 | -1 | 5 | -2 | 2 | -7
NPYLR7 agonist max-min | 2 | -5 | 7 | -2 | 2 | -12

43) CS(=O)(=O)Nc1ccc(NC(=O)c2ccccc2SC(F)(F)F)cc1
44) COC(Cn1ccnc1-c1ccc(S(C)(=O)=O)cc1)c1cccs1 (configuration not stated)
45) CN(Cc1nc(-c2ccc3c(c2)OCO3)no1)C1CCCc2ccccc21 (configuration not stated)
46) CCOC(=O)NCc1ccc2[nH]c(C)cc2c1
47) O=C(/C=C/c1ccoc1)N1CCN(CC(=O)N2CCCC2)CC1
48) O=C1NC(=O)N(c2ccc(Cl)cc2)C(=O)/C1=C/c1ccc(O)cc1
Assay by compound | 43 | 44 | 45 | 46 | 47 | 48
NPYLR7 agonist | 9 | 0 | 17&-5 | 2 | -2 | -1
NPYLR7 agonist max-min | 8 | -6 | 11&-3 | -2 | -2 | -9

49) O=C(NN=Cc1ccc(Cl)cc1Cl)c1cnccn1
50) COc1ccc(-c2nn(-c3cccc(F)c3)c(OC(C)=O)c2-c2ccc(NC(=O)c3ccc(Cl)cc3)cc2)cc1OC
51) CSc1nnc2c(n1)OC(C)Nc1ccccc1-2 (configuration not stated)
52) COc1ccc(C(=O)NCCNC(=O)[C@H]2CCCN2C(=O)c2ccc(F)cc2)cc1
53) O=C(CC1CC2CCC1C2)Nc1ccccc1N1CCCC1 (configuration not stated)
54) COc1ccc(C(=O)Nc2cccc(NC(=O)c3cccc(Cl)c3)c2)cc1[N+](=O)[O-]
Assay by compound | 49 | 50 | 51 | 52 | 53 | 54
NPYLR7 agonist | -2 | 4 | -1 | 2 | 4 | -6
NPYLR7 agonist max-min | -10 | 8 | 0 | 6 | 3 | -10

55) C=C(C)Cn1c(SCc2ccccc2)nc2c1c(=O)n(C)c(=O)n2C
56) CCn1nnc2c(Nc3ccc(F)c(F)c3)ncnc21
57) Cc1cccc(Nc2nc(NCCCO)nc3c2cnn3-c2ccccc2)c1
58) CC(C(=O)Nc1ccc(F)c(Cl)c1)N1CCC(NS(=O)(=O)c2cccs2)CC1 (configuration not stated)
59) CCOc1ccc(CN2CCC(c3n[nH]c(=O)n3CC)CC2)cn1
60) CC(C)c1ccc(CC2(C)C(=O)Nc3c(Cl)cccc32)cc1 (configuration not stated)
Assay by compound | 55 | 56 | 57 | 58 | 59 | 60
NPYLR7 agonist | -5 | 8 | 1 | 6 | 13 | -2
NPYLR7 agonist max-min | 9 | 15 | -2 | 4 | 11 | 2

61) NCc1n[nH]c(=O)n1-c1ccccc1-c1ccccc1
62) O=C(C1=CCCC1)N1CCC(c2nc(-c3cccnc3)ncc2-c2ccccc2)CC1
63) CCc1nc2c(OCCn3cccc3)cccn2c1N(C)C(=O)c1ccc(C)cc1
64) CC(C)(C)c1ccc(C(=O)N2CCC[C@@H]2C(=O)NCCCNC(=O)c2ccc(F)cc2)cc1
65) O=C(c1cc(C(F)(F)F)cc(C(F)(F)F)c1)N1CCC(c2nc(-c3ccccc3F)no2)CC1
66) CCC(Nc1nc(-c2cccnc2)nc2c1cnn2C)c1ccc(F)cc1 (configuration not stated)
Assay by compound | 61 | 62 | 63 | 64 | 65 | 66
NPYLR7 agonist | 2 | 19 | -8 | 0 | 18 | 3
NPYLR7 agonist max-min | 1 | 5 | -3 | 4 | 7 | 6

67) O=C(CCC(=O)c1ccc(F)cc1)NC1CCCN(Cc2ccccc2F)C1 (configuration not stated)
68) Cc1ccc(C2c3c(oc4ccc(F)cc4c3=O)C(=O)N2c2cc(C)on2)cc1 (configuration not stated)
69) CC(C)(C)c1csc(N/N=C\C=C\c2ccccc2)n1
70) COc1ccccc1C1SCC(=O)N(CC(=O)NCc2ccncc2)c2c1c(-c1ccccc1)nn2-c1ccccc1Cl (configuration not stated)
71) CCC(CC)n1nc(C)cc1NC(=O)C1CCOC1 (configuration not stated)
72) CCN=c1scc(-c2cc(OC)ccc2OC)n1N=CC1CC2C=CC1C2 (configuration not stated)
Assay by compound | 67 | 68 | 69 | 70 | 71 | 72
NPYLR7 agonist | 1 | 2 | 11 | 16 | 0 | 2
NPYLR7 agonist max-min | -1 | -1 | 10 | 19 | -4 | 1

73) Cc1cc(=O)c(C(=O)NC2CCCCC2C(F)(F)F)nn1-c1ccc(Cl)cc1 (configuration not stated)
74) O=S(=O)(c1cc(Cl)cc(Cl)c1)N1CCCC(c2ncn[nH]2)C1 (configuration not stated)
75) CCOC(=O)C1CCCCN1CC(=O)N1N=C(c2ccc(OC)cc2)CC1c1ccccc1F (configuration not stated)
76) CC(Sc1nnc(N2CCOCC2)n1C1CC1)c1cc(F)ccc1F (configuration not stated)
77) CCOC(=O)c1c(C)cc(C)[nH]c1=S
78) COc1cc(CNc2cc(-c3cccc(N(C)C)c3)ncn2)cc(OC)c1OC
Assay by compound | 73 | 74 | 75 | 76 | 77 | 78
NPYLR7 agonist | 0 | 0 | -1 | 2 | 2 | -2
NPYLR7 agonist max-min | -2 | -1 | 1 | -1 | 2 | -4

79) Cc1ccc(CNC(=O)CCc2cc3c(n2-c2ccc(F)cc2Cl)-c2ccccc2CO3)o1
80) COc1ccc(Cc2noc(CN(CCO)Cc3ccccc3)n2)cc1OC
81) c1ccc([C@@H]2C[C@@H]3C[C@H](N4CCNCC4)C[C@@H]3CO2)cc1
82) CCC(C(=O)N(Cc1cc(NC(=O)c2cccc(F)c2)ccc1N(C)C)CC1CCCO1)c1ccccc1 (configuration not stated)
83) COc1cc2c(cc1OC)C(c1c(F)cccc1Cl)N(C(=O)c1cccs1)CC2 (configuration not stated)
84) CCc1ccc(-c2cc3c(=O)n(Cc4nc(-c5cccc(Cl)c5)oc4C)ccn3n2)cc1
Assay by compound | 79 | 80 | 81 | 82 | 83 | 84
NPYLR7 agonist | 2 | -1 | 2 | 12 | -1 | -1
NPYLR7 agonist max-min | -1 | -2 | 7 | 8 | 8 | -3

85) Cc1ccc(-c2nc(CN(C)C(C)c3ccc4c(c3)OCCO4)c(C)o2)o1 (configuration not stated)
86) COc1cc(/C=C/CN2CCC(C(=O)NC(c3ccc(C)cc3)c3ccccn3)CC2)ccc1OC(C)=O (configuration not stated)
87) CCCOc1ccc(C(=O)N2CC[C@H]3CC[C@@H](C2)N3)cc1Cl
88) CCCN1C(=O)COCc2cc(-c3cc(F)cc(F)c3)ccc21
89) COCCN(CC(=O)N(Cc1cccn1Cc1ccccc1Cl)C1CCCCC1)C(=O)c1cccc(F)c1
90) CS(=O)(=O)c1ccc(S(=O)(=O)N2CCC(c3cn(Cc4cccc(F)c4)c4ccccc34)CC2)cc1
Assay by compound | 85 | 86 | 87 | 88 | 89 | 90
NPYLR7 agonist | 3 | 2 | -1 | 4 | -3 | 15
NPYLR7 agonist max-min | 0 | 5 | -1 | 1 | 3 | -2

91) COc1ccc(-c2nc3scc(CCNC(=O)/C=C/c4ccccc4)n3n2)cc1OC
92) CC1=C(C(=O)OC(C)C)C(c2ccccc2F)NC(=O)N1Cc1ccccc1 (configuration not stated)
93) CC(C)N(C)CC(=O)Nc1cc(-c2ccccc2)on1
94) Cc1ccc(CN(C(=O)NCc2ccc3c(c2)OCO3)C(C)C)o1
95) COCCCNC(=O)CN1CN(c2ccccc2)C2(CCN(C(=O)c3cc(OC)cc(OC)c3)CC2)C1=O
96) C/C=C(\C)CN(C)CC1CCCN(CCc2ccc(F)cc2)C1 (configuration not stated)
Assay by compound | 91 | 92 | 93 | 94 | 95 | 96
NPYLR7 agonist | -1 | 3 | -4 | -1 | 32 | 19
NPYLR7 agonist max-min | -3 | 4 | -5 | -3 | 31 | 6

97) CCCCCOC(=O)c1ccc(N(C)C)cc1
98) CC(Cl)C(=O)Nc1ccc(N2CCC(Cc3ccccc3)CC2)c(C(=O)NCC2CCCO2)c1 (configuration not stated)
99) CCOCCCN(CC(=O)N1CCc2sccc2C1c1ccc(Cl)cc1Cl)S(=O)(=O)c1ccc(Br)cc1 (configuration not stated)
100) COc1ccc(C(=O)Nc2nc(C)c3c(n2)CCCC3)cc1
101) COc1ccc(C=NNC(=O)C(C)(C)Oc2ccc(Cl)cc2)c(C(=O)O)c1OC
102) CCc1cccc(N2C(=O)CSC2c2ccc(NC(=O)C(CC)c3ccccc3)cc2)c1 (configuration not stated)
Assay by compound | 97 | 98 | 99 | 100 | 101 | 102
NPYLR7 agonist | -14 | 8 | 24 | -15 | 3 | 5
NPYLR7 agonist max-min | -27 | 18 | 19 | -20 | 6 | 15
